YopH PTP inh = blocks Yersinia enterocolitica YopH tyrosine phosphatase; actives 0.16% (n = 140,000); AID 898; inhibition, %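 (about 10 µM by stock and volumes)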; fluorescence Ex485/Em525;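 active = inhibition of 50% or more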;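 also: controls were vehicle for no effect and minimum signal wells for full effect; inactives centre near -20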
RecA intein inh = Mtb RecA intein splicing inhibition; P9WHJ3; cell-free RecA intein splicing, fluorescence; inhibition, %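 (about 9 µM by stock and volumes)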; actives 0.75% (n = 290,000); AID 2221; in the data active = inhibition above about 30%; inconclusive = no clear call, values can overlap the other calls;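 also: 0% = vehicle wells and 100% = reference inhibitor control wells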
Target sequence (P9WHJ3 whole entry, looked up): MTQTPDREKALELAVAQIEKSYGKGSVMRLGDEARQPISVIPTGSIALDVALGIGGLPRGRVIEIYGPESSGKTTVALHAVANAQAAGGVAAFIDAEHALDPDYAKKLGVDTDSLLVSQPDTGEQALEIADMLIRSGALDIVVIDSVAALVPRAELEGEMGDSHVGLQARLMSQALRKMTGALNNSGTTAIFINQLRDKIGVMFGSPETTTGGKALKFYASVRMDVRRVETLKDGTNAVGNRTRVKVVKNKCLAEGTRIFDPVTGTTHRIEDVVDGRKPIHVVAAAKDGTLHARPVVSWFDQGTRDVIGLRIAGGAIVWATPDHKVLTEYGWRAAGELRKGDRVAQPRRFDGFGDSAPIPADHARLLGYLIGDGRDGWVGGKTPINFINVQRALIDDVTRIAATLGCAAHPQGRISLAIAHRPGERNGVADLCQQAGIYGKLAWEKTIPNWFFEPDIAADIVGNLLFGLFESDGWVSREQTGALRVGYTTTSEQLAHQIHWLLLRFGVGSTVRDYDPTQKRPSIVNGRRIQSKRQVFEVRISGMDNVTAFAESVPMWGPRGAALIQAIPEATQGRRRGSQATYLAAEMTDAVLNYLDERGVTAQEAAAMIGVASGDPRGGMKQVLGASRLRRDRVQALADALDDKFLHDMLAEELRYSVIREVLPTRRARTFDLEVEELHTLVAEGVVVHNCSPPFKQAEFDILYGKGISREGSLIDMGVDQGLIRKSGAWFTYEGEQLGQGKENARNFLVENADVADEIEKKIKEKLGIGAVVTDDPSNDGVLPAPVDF
Mtb betalactam = beta-lactam sensitization of Mtb H37Rv | M. tuberculosis H37Rv growth with meropenem, percent inhibition; hits of this screen are not shown here | inhibition, % at 25 µM | actives 0.27% (n = 330,000);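 active = about 74% or more and at least 40 points above the plate without the antibiotic, then above 30% in a dose series; inconclusive = first-round hits that could not be retested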;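 also: growth measured after seven days incubation then overnight dye step; 0% = bacteria only wells and 100% = bacteria with antibiotic; twin plates without the antibiotic show which effects depend on it; some results filed as inactive read as strong as hits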
Mtb H37Rv = M. tuberculosis H37Rv growth inhibitors, H37Rv strain (AID 1626); M. tuberculosis H37Rv growth inhibition; higher % means a stronger effect; inhibition, % at 10 µM, or IC50 in µM where a hit was titrated; actives 0.95% (n = 220,000);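 active = confirmed in a dose series; inconclusive = inhibition above 80% but not taken into the dose series; inactive = below 80% or under 30% at every dose of the series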;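 also: bacteria incubated seven days before Alamar blue readout; 0% = bacteria only wells and 100% = bacteria with antibiotic wells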
Arbovirus anti = blocks arbovirus infection; arbovirus infection cell-based antiviral screen; inhibition, % at 10 µM; actives 0.37% (n = 200,000);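 active = inhibition from about 30%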;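 also: bluetongue infection of BSR cells; cell survival read as ATP light after 72 h; 0% = infected wells without compound and 100% = uninfected wells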
Arbovirus anti repeat = further read-out of Arbovirus anti, marked with its call; inhibition, %; measured here: 10K subset replicate screen; many hits read low in the repeat;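 first of two repeat runs on a subset; 0% = infected and 100% = uninfected wells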
* = called active by the depositor; u = inconclusive; x = not tested or not shown.

SMILES | YopH PTP inh | RecA intein inh | Mtb betalactam | Mtb H37Rv | Arbovirus anti | others
COc1cc(CC(=O)N/N=C/c2ccccc2)c([N+](=O)[O-])cc1OC | -8 | -1.3 | -6 | 11% | -9
COc1ccc(OC)c(S(=O)(=O)N2CCC(C(=O)N3CCCC3)CC2)c1 | x | 1.5 | -4 | x | x
COC(=O)c1ccc2c(=O)n(CCN3CCOCC3)c(SCC(=O)Nc3cccc(OC)c3)nc2c1 | x | 2.3 | 1 | x | x
CCC(c1nnc(SCCNCCO)n1CCN1CCOCC1)N(C)C (centres undefined) | -46 | 2.0 | -1 | -1% | 12
O=[N+]([O-])c1ccc(NCCCNS(=O)(=O)c2ccc(Cl)cc2)c(Cl)c1 | -29 | 12 | 7 | x | 7
O=C(CSc1nc(-c2ccccc2)cc(=O)[nH]1)N1CCc2ccccc21 | -32 | x | 5 | -6% | 0
O=C(Nc1cccc(S(=O)(=O)N2CCCCCC2)c1)c1ccc2ccccc2n1 | -11 | -2.2 | 3 | 6% | -2
O=C(COC(=O)c1cccc(S(=O)(=O)N2CCc3ccccc32)c1)Nc1ccc(Cl)cn1 | -30 | 2.1 | 4 | -14% | -1
Cc1cccc(N2CCN(C(=O)C3CCN(S(=O)(=O)c4c(C)noc4C)CC3)CC2)c1C | x | -1.6 | -4 | x | x
Oc1[nH]c2ccc(Br)cc2c1N=NC(=S)NCC1CCCO1 (centres undefined) | x | 19 | 50 | x | x
O=S(=O)(c1ccc2c(c1)OCCO2)N1CCC(O)(c2ccc(Cl)cc2)CC1 | -35 | 1.4 | -6 | -10% | -17
O=C(N/N=C/c1cccc([N+](=O)[O-])c1)c1cc(-c2ccc3c(c2)OCO3)n[nH]1 | x | 3.3 | 1 | 12% | x
CC(=O)c1ccc(-n2c(-c3cc(-c4ccsc4)n[nH]3)n[nH]c2=S)cc1 | x | -3.2 | -3 | -4% | -1
CSc1ccccc1C(=O)Nc1cccc([N+](=O)[O-])c1C | x | -0.4 | x | -1% | 5
Cc1cccc(NC(=O)CN2CCN(CC(=O)Nc3cccc(C)c3)CC2)c1 | -36 | -0.5 | 6 | -5% | 6 | Arbovirus anti repeat=-7
O=C(COC(=O)CCc1nc2ccccc2c(=O)[nH]1)NC(c1ccccc1)c1ccccc1 | x | 3.9 | -7 | 6% | x
COC(=O)C1=C(C)NC(C)=C(C(=O)OC)C1c1ccc(-c2cccc([N+](=O)[O-])c2)o1 | x | -1.0 | 3 | 1% | x
O=C(NC1CCN(C(=O)N2c3ccccc3Sc3ccccc32)CC1)c1ccccc1F | -34 | 9.6 | 98 | 74% | -19
O=S(=O)(c1cccc2nonc12)N1CCN(c2ccc(F)cc2)CC1 | x | 2.1 | 9 | 1% | 3
CCOC(=O)C1CCN(CCC(=O)Nc2ccc(Br)c(C)c2)CC1 | x | -6.5 | 46 | x | x
O=C(c1ccccc1O)N1CCOCC1 | x | 1.5 | -16 | -2% | x
CCN(CC)C(=O)Cn1c(=O)oc2ccccc21 | x | 0.1 | -11 | 3% | x
Nc1nc(SCC(=O)NCc2ccc3c(c2)OCO3)n[nH]1 | x | -1.9 | -4 | 3% | -3
CC(=O)Nc1cccc(-c2csc(Nc3ccccn3)n2)c1 | -7 | 3.3 | 12 | -7% | 11
CC(OC(=O)c1nsc(Cl)c1Cl)C(=O)NCc1ccco1 (centres undefined) | -22 | -1.2 | 2 | -12% | 13
CCc1nnc(NC(=O)c2ccc(Cl)c(S(=O)(=O)N3CCc4ccccc4C3)c2)s1 | -29 | -5.2 | 0 | 4% | 2
O=C(COC(=O)C1CCN(c2ccc(C(F)(F)F)cn2)CC1)NCc1ccc(F)cc1 | x | 1.9 | 6 | x | x
CCc1ccc(C(=O)N/N=C/c2ccc(Cl)cc2Cl)nc1 | -11 | 0.8 | -3 | 10% | 5
O=C(CCc1ccccc1)N1CCN(CCO)CC1 | x | -0.2 | -3 | 1% | -3 | Arbovirus anti repeat=1
CCOC(=O)c1ccc(S(=O)(=O)NNC(=O)COc2ccc(C)cc2)cc1 | -30 | -1.5 | 6 | 9% | -8

Some of these compounds in order of molar mass, high to low.
SMILES | YopH PTP inh | RecA intein inh | Mtb betalactam | Mtb H37Rv | Arbovirus anti | others
O=C(Nc1cccc(S(=O)(=O)N2CCCCCC2)c1)c1ccc2ccccc2n1 | -11 | -2.2 | 3 | 6% | -2
CCC(c1nnc(SCCNCCO)n1CCN1CCOCC1)N(C)C (centres undefined) | -46 | 2.0 | -1 | -1% | 12
O=C(CSc1nc(-c2ccccc2)cc(=O)[nH]1)N1CCc2ccccc21 | -32 | x | 5 | -6% | 0

New compounds follow.
SMILES | YopH PTP inh | RecA intein inh | Mtb betalactam | Mtb H37Rv | Arbovirus anti | others
COc1ccc(C(CNC(=O)Nc2ccccc2)N2CCN(C)CC2)cc1 (centres undefined) | x | -5.7 | 0 | x | x
CCC1CCCCN1CCNS(=O)(=O)c1ccc2c(c1)oc(=O)n2C (centres undefined) | -8 | -2.2 | -6 | 1% | -1 | Arbovirus anti repeat=5
Cc1ccccc1CN1CCN(S(=O)(=O)c2cccs2)CC1 | x | 0.2 | 0 | 6% | 4
COc1ccc(S(=O)(=O)Cc2ccc(C(=O)N3CCN(c4cc(C)ccc4C)CC3)o2)cc1 | x | -1.3 | 7 | x | x
CC(C)(C)NC(=O)C(c1c[nH]c2ccccc12)N(C(=O)Cn1nnc(-c2ccc(Cl)cc2)n1)c1ccccc1F (centres undefined) | -20 | -2.8 | 3 | 45% | -8
O=[N+]([O-])c1ccc(OS(=O)(=O)Cc2ccccc2)cc1 | x | -1.2 | 6 | 8% | -3
CCOC(=O)C(C)Sc1ccc2nnc(-c3ccc(F)cc3)n2n1 (centres undefined) | -26 | -1.9 | 0 | -3% | -3
CCc1nnc(NC(=O)c2ccc(NS(=O)(=O)c3ccccc3)cc2)s1 | -48 | -4.4 | -19 | -1% | 9
CCOc1ccccc1NC(=O)NC(C)c1ccc2c(c1)OCO2 (centres undefined) | x | 1.0 | 0 | x | x
CC(C)CC1=C/C(=C/c2ccc(-c3ccccc3)o2)C(=O)O1 | -23 | 9.3 | -1 | -14% | 12
CCN(CC)c1ccc(C(=O)NNC(=O)CN2C(=O)NC3(CCCCC3)C2=O)cc1 | x | -0.3 | 0 | x | x
COc1ccc(NC(=S)N2CCNC(=O)C2CC(=O)Nc2cccc(Cl)c2C)cc1 (centres undefined) | -1 | 1.0 | -3 | 0% | 13
NS(=O)(=O)c1ccc(CCNC2CC(=O)N(CCc3ccccc3)C2=O)cc1 (centres undefined) | -19 | x | -1 | 5% | 2 | Arbovirus anti repeat=0
O=C(CS(=O)(=O)c1ccccc1)N1CCc2ccccc21 | x | -0.3 | -1 | 4% | 2
C/C(=N\O)C(C)(C)Nc1cccc(F)c1 | x | -2.2 | -8 | -2% | x
O=C(/C=C/NNC(=O)c1cccc(Br)c1)c1cccc(Br)c1 | -35 | 14 | 8 | 5% | -37
COc1cccc(OC)c1C(=O)NC(=S)NCc1ccccc1 | x | -1.2 | 1 | 3% | -4
Cc1ccc(NC(=O)CCNS(=O)(=O)c2ccc3[nH]c(=O)oc3c2)c(C)c1 | x | -1.3 | 1 | x | x
COc1cccc(CNC(=O)CN(C)S(=O)(=O)c2ccc3c(c2)n(C)c(=O)c(=O)n3C)c1 | x | -1.1 | 4 | x | x
Cc1ccc(/C=C2/NC(=O)N(Cc3ccccc3)C2=O)o1 | -19 | -2.3 | 6 | 3% | 6
COc1cc(OC)cc(C(=O)NCCc2cnc[nH]2)c1 | x | -1.9 | 0 | x | x
Fc1cccc(CSc2ccc3nnc(-c4ccccn4)n3n2)c1 | x | 1.9 | -4 | 7% | 5
N=c1c2c(n(Cc3ccc(Cl)c(Cl)c3)c3c1CCC3)CCCC2 | -18 | -1.2 | 2 | 4% | 4
COc1cc(/C=C/C(=O)NC(C)(C)C)ccc1OCc1ccccc1 | -9 | -3.3 | 86 | 71% | 6
Cc1cccc(NC(=S)N2CCN(c3cc(C)ccc3C)CC2)c1 | 1 | -2.6 | 1 | 1% | 8
Cc1ccc(N=Cc2ccc(N(C)C)cc2)cc1 | 16 | 7.0 | -3 | -4% | -6
Cc1cc2c(NC(=O)CCCC(=O)O)cccc2nn1 | x | 1.3 | -11 | -2% | x
CCC(=O)Nc1cccc(NC(=O)CSc2nnc(-c3ccc(NS(C)(=O)=O)cc3)n2CC)c1 | -1 | 4.2 | -19 | -1% | -7
CCOc1ccccc1C1c2[nH]c3ccccc3c2C[C@H]2C(=O)N(C3CC3)CC(=O)N12 (some centres undefined) | x | -0.1 | -8 | x | x
CCCNc1nc(-c2ccccc2)c(C(=O)OCC)cc1C#N | -25 | 4.4 | 67 | 26% | -17
O=C(Nc1ccc(Br)cn1)c1ccc([N+](=O)[O-])o1 | x | 0.4 | 100 | u | -25
CC(=O)N1CCN(C(=O)C2(NC(=O)Nc3ccccc3Cl)CCCCC2)CC1 | x | -1.0 | -5 | x | x
COc1cc(C(=O)N2CCN(C(=O)Cc3ccccc3)CC2)cc(OC)c1OC | 6 | 6.7 | 0 | -4% | -4
Cc1cc(C)c(-c2cc(NC(=O)COC(=O)c3ccc(NC(=O)CC#N)cc3)n(-c3ccccc3)n2)cc1C | x | 0.9 | 5 | x | x
CCOC(=O)C1=C(C)N(c2ccc(C)cc2)C(=O)/C1=C\c1ccc(O)c(OC)c1 | x | 3.3 | 4 | 3% | x
COc1ccc(OC)c(NC(=O)CCNS(=O)(=O)c2ccc3c(c2)oc(=O)n3C)c1 | -15 | 3.6 | -9 | -4% | 1
O=C(COc1ccccc1)N=C1SC2CS(=O)(=O)CC2N1c1ccc(F)cc1F (centres undefined) | x | 0.4 | -2 | x | x
CSc1nc2ccc(S(=O)(=O)Nc3c(C)n(C)n(-c4ccccc4)c3=O)cc2s1 | 2 | 1.1 | 1 | -1% | -14
Cc1ccn2c(c1)nc(=O)c1cc(S(=O)(=O)N3CCOCC3)ccc12 | x | -0.1 | 4 | x | x
N#Cc1ccc(N2CCCNCC2)nc1 | x | 2.6 | -1 | x | x
Cc1onc(-c2c(Cl)cccc2Cl)c1C(=O)Nc1nc(C(C)(C)C)cs1 | x | 14 | 7 | 3% | x
Cc1cc(C)n2c(SCCC(C)C)nnc2n1 | -15 | 1.1 | -2 | 5% | 0
O=S1(=O)CCN2C(=N1)Sc1c2ccc2c1CCCC2 | -34 | 11 | 4 | -4% | 4
Cc1ccc(-c2noc(C3CCCN(C(=O)c4cccc([N+](=O)[O-])c4)C3)n2)o1 (centres undefined) | x | 1.0 | -2 | x | x
CCCCC(CC)CNC(=O)c1[nH]c(C)c(C(C)=O)c1C (centres undefined) | -27 | 0.1 | -1 | 6% | -10 | Arbovirus anti repeat=-13
Cc1ccccc1C(=O)c1cccn1CC(=O)NCCCN1CCc2ccccc2C1 | x | -1.7 | -8 | 1% | 11
CC(=O)Nc1sc2c(c1C(c1cccc(Cl)c1)N1CCN(CCO)CC1)CCCC2 (centres undefined) | x | 3.2 | 59 | 9% | -20
Cn1c(NC(=O)C[n+]2cc(-c3ccc(Cl)c(Cl)c3)n3c2CCC3)cc(=O)n(C)c1=O | -38 | -0.8 | 7 | -3% | -7
Cc1ccc(NC(=O)C2CC(=O)N(Cc3ccco3)C2)cc1 (centres undefined) | x | 1.1 | -6 | 1% | x
CCCCS(=O)(=O)NC1=NCN(CC)CN1 | -27 | -2.7 | 2 | 12% | 2

Next section
SMILES | YopH PTP inh | RecA intein inh | Mtb betalactam | Mtb H37Rv | Arbovirus anti | others
CCOC(=O)C(C)Oc1cc(Cl)c(C=O)cc1OC (centres undefined) | x | -0.1 | 92 | 32% | -4
COC(=O)c1cc(S(=O)(=O)NCC2CCN(Cc3cccc(F)c3)CC2)cn1C | x | 1.9 | -6 | x | x
NC(N)=N/N=C/c1ccc(OCc2ccc(Cl)cc2Cl)cc1 | -20 | x | 69 | u | -34
O=C(CCc1ccccc1O)NC1CCCc2ccccc21 (centres undefined) | x | 0.9 | 4 | x | x
O=C(CN1CCN(S(=O)(=O)N2CCCCC2)CC1)Nc1ccc(Br)cc1 | x | 0.3 | -3 | x | x
CCCCn1c(N)c(N(CCOC)C(=O)c2ccc(-c3ccc(Cl)cc3)o2)c(=O)[nH]c1=O | x | 3.0 | -15 | x | x
CC(=O)Oc1c(Br)cc(N(C(C)=O)S(=O)(=O)c2ccccc2)c2ccccc12 | x | 37* | -1 | x | x
O=C(Nc1c(C(=O)Nc2cccc(F)c2)oc2ccccc12)c1ccc2c(c1)OCO2 | -42 | -6.5 | -5 | -2% | -6
CCOc1ccc(NC(=S)Nc2ccc(OC(F)(F)F)cc2)cc1 | -31 | -6.3 | 83 | u | 9
CC1(C)OC(=O)C(=CNCC(O)c2ccccc2)C(=O)O1 (centres undefined) | -53 | -2.4 | -4 | -4% | 7
CCC(=O)N1CCc2cc(Br)cc(S(=O)(=O)N(C)c3ccc(OC)cc3)c21 | x | -10 | -7 | x | x

Only part of the results is shown (hit frequency here may not be typical).
